Cruzain noTriton = inhibitors of Trypanosoma cruzi cruzain without detergent; AID 1476; purified cruzain, Z-FR-AMC fluorescence, no detergent; P25779; hit rate 2.3% among 200,000; Potency, µM, for the others: max response, negative = inhibition, actives largely listed as inhibitors;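 further: plate controls were enzyme without inhibitor for no effect and buffer without enzyme for full effect; nearly all actives have a fitted effect of over 40% in size; top concentration of the series not given in the record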
Target sequence (P25779 123-467 limits assumed): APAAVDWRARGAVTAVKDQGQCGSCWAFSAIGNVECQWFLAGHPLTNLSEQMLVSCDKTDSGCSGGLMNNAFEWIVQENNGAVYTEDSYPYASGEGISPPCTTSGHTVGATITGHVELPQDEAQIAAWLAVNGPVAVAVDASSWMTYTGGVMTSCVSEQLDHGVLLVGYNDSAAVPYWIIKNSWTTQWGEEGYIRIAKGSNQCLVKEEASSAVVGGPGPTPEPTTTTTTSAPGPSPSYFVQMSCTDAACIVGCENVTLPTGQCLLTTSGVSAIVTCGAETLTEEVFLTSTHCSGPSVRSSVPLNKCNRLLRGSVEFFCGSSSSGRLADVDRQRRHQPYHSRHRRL
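Purified cruzain at 1.5 nM, pre-incubated 15 min with compound at room temperature in 100 mM sodium acetate pH 5.5, 5 mM DTT, 0.00005% Triton X-100. Reaction started with 2 uM Z-FR-AMC; AMC fluorescence increase over 60 s gives rate.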
NS1 inh = inhibitors of influenza NS1 protein function | S. cerevisiae slowed by influenza A NS1, growth recovery by OD600 | Potency, µM (top dose mostly 46.1 µM), for inactives: at the top dose activity, positive = more growth | hit rate 0.4% among 270,000 | AID 2326; active means well fitted rising curve with a large enough effect; inconclusive means small, poorly fitted or top-dose-only effect; inactive means no such curve, though single readings can be large or run the other way; further: nearly all actives have a fitted effect of over 50% in size
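In this qHTS, NS1 from influenza A is expressed in budding yeast, where it slows growth. Cells are switched from glucose to 2% galactose medium (pH 6.0, -URA), treated with compound, and growth recovery is read at OD600.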
Cruzain inh Det = blocks cruzain activity in presence of Triton detergent; P25779; purified cruzain, Z-FR-AMC fluorescence, 0.01% Triton; Potency, µM, inactives show max response, negative = inhibition, usual class: inhibitors; hit rate 0.43% among 200,000; AID 1478;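 further: plate controls were neutral wells for no effect and buffer without enzyme for full effect; nearly all actives have a fitted effect of over 40% in size; top concentration of the series not given in the record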
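Sodium acetate buffer (100 mM, pH 5.5) containing 5 mM DTT and 0.01% Triton X-100 hosted 1.5 nM cruzain and test compound for 15 min at room temperature. Cleavage of 2 uM Z-FR-AMC was then tracked by fluorescence.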
Lassa entry inh = inhibitors of Lassa virus binding or cell entry; Lassa virus pseudotype entry inhibition, cell reporter; control for the full effect not named in the record; Potency, µM (doses to about 37.9 µM), without a hit: at the top dose activity change, negative = inhibition, most hits filed as inhibitors; hit rate 1.2% among 300,000; active means well fitted inhibition curve with a large enough effect; inconclusive means small, poorly fitted or top-dose-only effect, or effect the other way; inactive means flat fitted curve, though single readings scatter; tested in HEK293 cells; further: on the % scale 0 is the no-effect control and ±100 the full control effect; nearly all actives have a fitted effect of over 50% in size; luciferase read-out
StopGo reporter = FMDV 2A StopGo reporter, luciferase signal; Potency, µM (titrated, usually from 57.9 µM), inactives show at the highest dose signal change, negative = less light; AID 1159524; hit rate 1.2% among 410,000; human cells with a luciferase reporter of 2A StopGo recoding; control for the full effect not named in the record; active = well fitted falling curve with a large enough effect; inconclusive = small, poorly fitted or top-dose-only effect; inactive = no such curve, though single readings can be large or run the other way; tested in HEK293T cells; further: on the % scale 0 is the no-effect control and ±100 the full control effect; nearly all actives have a fitted effect of over 45% in size; luciferase light after 4 h
SARS PLP yeast = blocks SARS-CoV papain-like protease in a yeast assay. hit rate 0.19% among 330,000. S. cerevisiae expressing SARS-CoV PLpro, growth rescue; control for the full effect not named in the record. Potency, µM (titrated, usually from 32.9 µM), for inactives: top-dose activity, positive = growth rescue. AID 485353; active means well fitted rising curve with a large enough effect; inconclusive means small, poorly fitted or top-dose-only effect; inactive means no such curve, though single readings can be large or run the other way; further: 0% is about no effect; nearly all actives have a fitted effect of over 55% in size; growth read by luminescence after 48 h
RE007 growth inh = less growth of the S. pombe RE007 Vpr strain. S. pombe RE007 Vpr strain, BacTiter-Glo ATP luminescence, 24 h; control for the full effect not named in the record. Potency, µM (titrated, usually from 92.2 µM), without a hit: at the top dose activity change, negative = less growth. hit rate 0.21% among 360,000. AID 651644; active = well fitted falling curve with a large enough effect; inconclusive = small, poorly fitted or top-dose-only effect; inactive = no such curve, though single readings can be large or run the other way;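 further: on the % scale 0 is the no-effect control and ±100 the full control effect; nearly all actives have a fitted effect of over 50% in size; the assay follows cell death caused by Vpr and the record does not say whether a fall means rescue or toxicity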
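Fission yeast strain RE007, carrying one chromosomally integrated HIV-1 vpr copy, was seeded at OD 0.01 in PMG+AL medium with 23 nL pinned compound. After 24 h at 30 °C and 99% humidity, viability was read by BacTiter-Glo luminescence.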
Marburg entry inh = blocks Marburg virus binding to or entry into cells; AID 540276; hit rate 1.8% among 300,000; Marburg virus pseudotyped entry inhibition, cell reporter; control for the full effect not named in the record; about a third of the inactives were read at about 46 µM; Potency, µM (top dose mostly 37.8 µM), for the others: at the top dose activity change, negative = inhibition, usual class: inhibitors; active = well fitted inhibition curve with a large enough effect; inconclusive = small, poorly fitted or top-dose-only effect, or effect the other way; inactive = flat fitted curve, though single readings scatter; tested in HEK293 cells; about a fifth of its hits are not listed in these tables; further: on the % scale 0 is the no-effect control and ±100 the full control effect; luciferase read-out
* = called active by the depositor; ? = inconclusive; · = no result given; & = joins results of further samples; [ ] = dose if it differs, or a comment. Unless noted, the call rests on the fitted dose curve; in most records, active means well fitted curve in the direction sought with a large enough effect; inconclusive means small, poorly fitted or top-dose-only effect, or another doubt; inactive means no such curve, though single readings can be large; an effect the other way counts as inactive or inconclusive. Potency means the concentration at half of the fitted maximal effect. An unsorted share of the library; 4.5% or so of the library scored in one or more.

SMILES	Cruzain noTriton	NS1 inh	Cruzain inh Det	Lassa entry inh	StopGo reporter	SARS PLP yeast	RE007 growth inh	Marburg entry inh
O=C(NCc1ccccc1)c1ccc(OCC2CCCO2)cc1 (stereo not drawn)	-14.4%	9.9%	0.3%	17.4%	66.1%[activator]	6.3%	3.4%	0.0%
COc1ccc(Nc2cc(C(=O)NCc3ccco3)c3ccccc3n2)cc1	12.6µM*	?	-6.7%	3.7%	·	22.2%	·	-2.6%
Cc1ccc(NC(=O)c2ccc(S(=O)(=O)NCC3CCCO3)cc2)cc1 (stereo not drawn)	-11.5%	1.5%	7.1%	29.3%	·	-3.7%	-8.3%	15.3%
O=C(NCCc1ccccc1)c1cc(-c2ccc(Cl)cc2)on1	-5.6%	·	-3.1%	1.1%[46.1 µM]	-1.5%	·	·	-3.4%[46.1 µM]
COc1cc(CNCCc2ccccc2)ccc1OCc1ccc(Cl)nc1	-0.1%	-7.6%	2.4%	-10.4%	-15.3%	9.7%[6.58 µM]	-12.2%	?
COc1cccc(CN(C)C(=O)CC2C(=O)NCCN2C2Cc3ccccc3C2)c1 (stereo not drawn)	·	-11.4%	·	-20.3%	-24.4%	·	-19.5%	17.9%
CCN(CC(=O)NCCC1=CCCCC1)S(=O)(=O)c1ccccc1	·	-9.1%	·	·	-17.0%	-3.5%	-0.7%	·
Cc1ccc(CN2CCN(Cc3nc4c(s3)CCCC4)CC2CCO)cc1 (stereo not drawn)	·	4.4%	·	-4.9%[46.1 µM]	-20.0%	0.8%	2.2%	?
COc1ccc(C(=O)N/N=C(\C)c2ccccn2)cc1OC	·	-53.3%	·	5.62µM*	?	6.8%	?	6.31µM*
C=CCNC(=O)COC(=O)c1ccc(C)c(NC(=O)c2ccco2)c1	·	·	·	1.8%	2.8%	0.0%	4.9%	?
CCCCN(C(=O)C1CCC(CNS(=O)(=O)c2cccc3nsnc23)CC1)c1ccccc1 (stereo not drawn)	5.8%	·	-2.3%	?	?	·	·	?
C/C(=N\NC(=O)C1CC1)c1ccc(OC(F)F)cc1OC(F)F	·	2.3%	·	-3.8%	-1.4%	-2.7%	1.7%	-1.8%[46.1 µM]
CCCCn1c(N)c(N(CC(C)C)C(=O)C2CCN(c3ncnc4sc(C)c(C)c34)CC2)c(=O)[nH]c1=O	·	·	·	-7.4%[46.1 µM]	-26.5%	4.6%	7.1%	1.7%
CCOc1cc(/C=C2/NC(=O)N(CC(=O)Nc3cccc(C)c3)C2=O)ccc1O	?	6.5%	-3.7%	?	-18.1%	26.3%	-15.9%	-39.7%
CN(C)/C(=N\S(=O)(=O)c1ccccc1)c1ccc(F)cc1	·	12.5%	·	·	-18.1%	-0.9%	-3.5%	·
C=CCNC(=O)C1CC1(c1ccccc1)c1ccccc1 (stereo not drawn)	6.6%	-1.9%	-3.3%	3.7%	-4.0%	14.9%	2.2%	-9.8%&-9.8%
COc1ccc(N2C(=O)NC(=O)/C(=C/c3cccc(OC(=O)c4cccs4)c3)C2=O)cc1Cl	16.8%	?	-6.0%	10.0%	-17.1%	24.7%	-16.9%	29.8%
OCCN(CC#CC(O)(c1ccccc1)c1cccc(F)c1)CCO (stereo not drawn)	·	5.3%	·	?	-10.9%	0.3%	0.0%	-2.3%
CC(C)n1c(SCC(=O)Nc2ccc(N3CCOCC3)cc2)nnc1-c1ccco1	·	2.3%	·	18.6%	10.3%	10.4%	2.2%	5.3%[46.1 µM]
CC(C)CCNC(=O)Cc1csc(-c2ccccc2)n1	·	·	·	16.8%	25.2%	-1.2%	12.3%	·
O=C(O)CN=C1CC(c2ccccc2)CC(=O)/C1=C(/O)CCCN1C(=O)c2ccccc2C1=O (stereo not drawn)	·	·	·	1.5%[46.1 µM]	-2.5%	1.2%	-3.6%	?
O=C(Nc1ccc(F)cc1)c1ccc(-n2cncn2)c([N+](=O)[O-])c1	·	3.4%	·	-17.7%	?	-0.6%	1.8%	?
CCOC(=O)c1nnc(-c2ccccc2)nc1N1CCSCC1	·	-12.8%	·	6.2%	-4.8%	-1.9%	-2.8%	-3.1%[46.1 µM]
O=C(NCc1ccco1)c1cc2sccc2n1Cc1ccccc1	-10.5%	-72.1%	-9.7%	-22.7%[14.3 µM]	1.9%	-76.8%	-4.2%	11.1%
Cc1ccc(CCNC(=O)C2CCCN(S(=O)(=O)c3cccs3)C2)cc1 (stereo not drawn)	9.8%	1.5%	-0.5%	-6.5%	0.0%	-6.9%	-11.3%	?
Clc1ccc(C2=Nn3c(nnc3-c3cc(-c4ccccc4)n[nH]3)SC2)cc1	-19.7%	19.6%	0.4%	?	?	-5.4%	5.4%	?
COc1cccc(Nc2cc(C)nc3nc(C)nn23)c1	-11.8%	-11.0%	3.8%	·	3.6%	1.3%	-2.1%	·
CCCCSc1nc2c(cnn2-c2ccccc2)c(=O)n1N	·	-37.3%	·	·	2.7%	-1.5%	?	·
Cc1ccc2c(c1)c1c(n2CC(O)CN2CCCCC2C)CCCC1 (stereo not drawn)	·	2.4%	·	·	-7.0%	-0.2%	16.1%	·
COc1ccc(/C=N/NC(=O)c2cccc([N+](=O)[O-])c2)cc1OS(=O)(=O)c1ccc(C)cc1	?	-9.1%	2.1%	-1.4%	-26.5%	3.0%	-13.4%	?
COc1ccc(NC(=O)CN2CCN(S(=O)(=O)c3ccc(Br)cc3)CC2)cc1	11.6%	·	-2.4%	0.6%[46.1 µM]	-13.6%	·	·	·
Cc1oc2c(c1C(=O)NCc1ccccc1F)C1=NCCN1C=N2	-13.0%	·	-3.0%	-0.2%[46.1 µM]	-7.9%	·	·	·
Cc1ccc(C#N)c(SCc2ccccc2F)n1	·	-8.2%	·	18.2%	7.8%	-0.6%	-0.7%	0.1%[46.1 µM]
O=C(N/N=C\c1ccc(COc2ccc([N+](=O)[O-])cc2)o1)c1cccc(Cl)c1	-3.2%	6.6%	-0.4%	?	?	3.4%	1.1%	-5.0%
Cc1ccc(S(=O)(=O)Oc2ccc3c(c2)O/C(=C\c2cccnc2)C3=O)cc1	?	-5.4%	-7.9%	-0.3%	-3.1%	2.3%	-3.5%	?
CCOc1ccc(-c2cc(CCCC(=O)NCc3cccnc3)no2)cc1	-1.0%	-39.9%	-0.4%	-29.3%	-2.7%	-13.3%	-14.8%	5.3%
CC(=O)Nc1cccc(NC(=O)CSc2nnc(NC(=O)c3ccco3)s2)c1	·	13.2%	·	-1.2%	10.8%	-6.9%	1.4%	-14.9%
O=C(CNc1ccccc1)N/N=C/c1cn(-c2ccccc2)nc1-c1ccccc1	25.1µM*	22.1%	-5.9%	6.2%	-8.4%	5.7%	-5.0%	?
Cc1c(C(=O)NN2CCOCC2)oc2c1ccc1ccccc12	·	·	·	-17.4%	-0.9%	1.2%	-7.5%	4.8%[14.2 µM]
NS(=O)(=O)c1ccc(CNC(=O)CCS(=O)(=O)Cc2ccccc2)cc1	·	24.6%	·	1.8%	-15.8%	1.3%	1.5%	-1.9%
COc1ccc(Cc2nnc(NC(=O)Nc3ccc(F)cc3)s2)cc1	·	4.6%	·	·	-1.8%	-3.3%	11.2%	·
O=C(Nc1cccnc1Cl)C1CCCN(c2ncnc3c2nc2n3CCCCC2)C1 (stereo not drawn)	·	-27.7%	·	·	9.6%	5.7%	10.6%	·
CCNC(=S)NC1CC2CCCC(C1)N2Cc1ccc(C)cc1 (stereo not drawn)	·	-6.6%	·	·	-12.1%	-5.3%	-18.7%	·
O=C(CN1C(=O)/C(=C2\SC(=S)N(C3CCS(=O)(=O)C3)C2=O)c2ccccc21)Nc1ccc(F)cc1 (stereo not drawn)	·	2.5%	·	13.1%	12.6µM*	0.7%	-2.5%	3.9%[46.1 µM]
CCOC(=O)C(C)On1c(-n2nc(C)cc2C)nc2ccccc2c1=O (stereo not drawn)	·	-7.4%	·	·	6.7%	0.1%	0.3%	·
CCOC(=O)Cc1csc(NC(=O)CSc2ccc(Br)cc2)n1	0.5%	-18.4%	-4.1%	-7.5%	?	-12.4%	4.2%	?
COC(=O)c1ccc(CSc2nc3sc4c(c3c(=O)n2C)CCCC4)o1	-22.7%	-3.0%	0.5%	?	·	3.8%	-4.2%	?
COc1cc(C2/C(=C(\O)c3cc(C)ccc3C)C(=O)C(=O)N2CCN(C)C)ccc1O (stereo not drawn)	-6.2%	2.2%	-0.4%	20.4%	11.5%	10.9%	-1.8%	?
COc1ccc(C(=O)C2CCCN(Cc3cccc(C)n3)C2)c(OC)c1 (stereo not drawn)	·	3.1%	·	?	-15.2%	0.3%	-13.6%	?
Cc1ccc(SCCNC(=O)C(C)C)cc1	-6.5%	3.1%	3.4%	-1.8%	·	1.7%	-0.6%	8.9%
COc1ccc(/C=N/NC(=O)c2ccc(Cl)cc2)cc1COC(C)=O	7.3%	-4.3%	-6.9%	-9.7%	-12.8%	-24.0%	20.0%	1.4%
CCCCN(C(=O)C1CC(=O)N(CCc2ccc(OC)c(OC)c2)C1)c1c(N)n(CCCC)c(=O)[nH]c1=O (stereo not drawn)	·	·	·	-10.5%	-19.5%	0.6%	-2.2%	?
COc1ccc2nc(N3C(=O)/C(=C/c4ccc(Cl)cc4)NC3=S)sc2c1	-27.9%	25.3%	-4.7%	?	-3.7%	24.1%	-10.7%	3.8%
Cc1ccc2nccc(C(=O)N3CCCC(Nc4ccc(C)c(C)c4)C3)c2c1 (stereo not drawn)	·	-0.6%	·	·	-14.9%	-1.9%	1.3%	·
CCOC(=O)COc1coc(CN2CCN(c3cccc(Cl)c3)CC2)cc1=O	·	-35.6%	·	·	-12.5%	-3.9%	1.3%	·
COC(=O)c1cc(NS(=O)(=O)c2ccc(NCc3cccnc3)c([N+](=O)[O-])c2)cc(C(=O)OC)c1	6.8%	16.8%	-3.7%	8.0%	-9.5%	6.8%	-13.7%	5.4%
COc1ccccc1CNC(=O)c1ccc(OCC2CCCO2)cc1 (stereo not drawn)	-7.5%	-1.4%	0.3%	16.8%	0.1%	13.8%	35.0%	?
O=S(=O)(c1ccc(F)c(F)c1)N1CCN(c2ncccn2)CC1	·	7.0%	·	13.5%	-14.1%	-0.1%	-2.8%	?
